From PubChem
HNF4A DNA FP: change in binding of human HNF4 alpha to DNA. activity change, % at 10 µM. P41235. HNF4a-FITC DNA binding, fluorescence polarization, 1 h. 360,000 compounds, 0.3% hits; in the data active = activity change above about 30%, passing the limit was not always enough;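 also: controls were the assay level and a saturating level of protein; the project sought stronger binding though the title names inhibitors; some compounds called inactive have numbers as strong as hits; positive values seem to mean higher polarization but the record does not say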
Target sequence (P41235 whole entry, looked up): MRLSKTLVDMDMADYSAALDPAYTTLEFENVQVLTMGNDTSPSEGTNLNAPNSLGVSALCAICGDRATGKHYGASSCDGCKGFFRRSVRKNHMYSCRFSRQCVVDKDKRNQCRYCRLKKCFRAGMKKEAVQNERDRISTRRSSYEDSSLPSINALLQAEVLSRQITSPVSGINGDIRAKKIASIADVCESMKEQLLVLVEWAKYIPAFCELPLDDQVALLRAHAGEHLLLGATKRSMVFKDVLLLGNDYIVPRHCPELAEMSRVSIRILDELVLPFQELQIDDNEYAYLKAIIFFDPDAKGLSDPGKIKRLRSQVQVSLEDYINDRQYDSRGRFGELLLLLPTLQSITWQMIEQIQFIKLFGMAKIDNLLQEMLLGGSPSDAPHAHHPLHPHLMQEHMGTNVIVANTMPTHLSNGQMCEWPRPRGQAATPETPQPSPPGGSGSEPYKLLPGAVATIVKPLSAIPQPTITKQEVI
Beta2AR agonist: activates human beta-2 adrenergic receptor causing internalization; P07550; Am2.2-beta2AR cells, FAP receptor internalization, flow cytometry; reference of the scale not given here; response, % (no concentration beside the values); 340,000 compounds, 0.43% hits; AID 504454;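 active = response above a set limit, near 3 SD of response in nonfluorescent compounds, cut at about 42% in these data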;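 also: stock transfer was 100 nL into about 11 µL; a reference agonist was the positive control; negative values mostly stem from fluorescent compounds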
UCH37 inh: inhibitors of human deubiquitinating enzyme UCH37; purified proteasome/UCH37, Ub-AMC cleavage fluorescence; AID 588478; 330,000 compounds, 0.33% hits; inhibition, % (test concentration not listed);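 active = mean of two replicates above 20%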;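 also: 0% = compound-free wells with enzyme and 100% = wells lacking proteasome; stock transfer was 100 nL into about 20 µL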
Target sequence (Q9Y5K5 whole entry, looked up): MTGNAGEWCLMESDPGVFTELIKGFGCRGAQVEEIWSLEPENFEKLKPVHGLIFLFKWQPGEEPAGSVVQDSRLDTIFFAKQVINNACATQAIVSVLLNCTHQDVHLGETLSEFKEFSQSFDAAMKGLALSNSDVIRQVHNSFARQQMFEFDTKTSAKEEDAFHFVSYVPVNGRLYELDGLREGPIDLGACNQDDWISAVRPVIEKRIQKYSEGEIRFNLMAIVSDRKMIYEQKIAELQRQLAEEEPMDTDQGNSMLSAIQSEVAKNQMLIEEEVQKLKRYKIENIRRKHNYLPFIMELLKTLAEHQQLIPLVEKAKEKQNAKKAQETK
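Material: human UCH37 enzyme supplied as purified proteasome complex. Measure: % inhibition of Ub-AMC cleavage fluorescence. Medium: pH 7.4 Tris-HCl (50 mM) with ovalbumin, ATP-MgCl2, DTT. Times: 30 min preincubation with enzyme, 25 min cleavage at room temperature. Detection: AMC fluorescence intensity at 355/460 nm.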
Bfl-1 A1 inh: inhibitors of the anti-apoptotic protein A1, read as caspase activation; caspase activation, % (test concentration not listed); AID 2462; 330,000 compounds, 0.066% hits; MEF A1-2A-BIM cells, Caspase-Glo 3/7 luminescence, 3 h; percent of clofoctol response, vehicle zero;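 active = over half of replicate activation scores above 10%, or exactly half above 10 with the replicate mean above 10; inconclusive = replicate mean below 10 yet half the replicates above 10; inactive = over half of replicates below 10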;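 also: wells of about 30 µL received 50 nL stock; many hits fall short of the cut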
Vif A3G: inhibitors of Vif binding to APOBEC3G peptide, primary screen, biochemical, TR-FRET, GST-Vif 1-94, biotin-A3G peptide, dose response retest (AID 1117319); TR-FRET GST-Vif / biotin-A3G peptide binding; higher % means a stronger effect; test concentration not given here; strong numbers were not always called active; one-dose inhibition, %; IC50 in µM for titrated hits; 260,000 compounds, 0.57% hits;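 active = above the screen mean plus three standard deviations and confirmed in dose response; inconclusive = results disagree or hit not tested in dose response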;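 also: Vif residues 1-94 fused to GST binding biotinylated APOBEC3G peptide 110-148; 0% = full assay without inhibitor and 100% = GST in place of GST-Vif; retest series ran down from 100 µM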
Ecoli growth: blocks Escherichia coli growth; OD600, 23 h; hits give low values; OD600 absorbance (no concentration beside the values); 330,000 compounds, 0.21% hits;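 active = OD600 absorbance below the run mean of sample wells minus 3.6 SD, in any replicate, cut at about 0.56 in these data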;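 also: stock transfer was 300 nL into about 60 µL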
LANA-H2A inh: blocks KSHV LANA binding to histone H2A/H2B; Q9QR71; cell-free LANA-H2A/H2B peptide, fluorescence polarization; inhibition, % (no concentration beside the values); 320,000 compounds, 0.6% hits; AID 2629; in the data active = inhibition mostly above about 10%, no sharp cut-off; inactive = mostly below about 6.7%;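 also: stock transfer was 7.5 nL into about 10 µL; 0% = median of vehicle wells and 100% = median of positive control wells; one replicate is shown; the record names a cut of 25% in any replicate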
An asterisk follows results filed as active; ? = inconclusive; · = no result given. Compounds as they come; about 2.1% have a hit in one of these screens.

molecule | Bfl-1 A1 inh | HNF4A DNA FP | UCH37 inh | Vif A3G | LANA-H2A inh | Beta2AR agonist | Ecoli growth
O=C(NC(=O)c1c(F)cccc1F)Nc1ccccc1SC(F)F | -0.5 | -1.2 | 4.4 | ? | 5.0 | 0 | 0.71
O=C(CSc1nnc(-c2ccccc2)n1Cc1ccccc1)NC1CC1 | 0.0 | -1.9 | -1.9 | 14% | -3.3 | -9 | 0.73
CCCN(Cc1nc2cc(Cl)ccc2c(=O)[nH]1)C(=O)c1ccc(S(=O)(=O)N2CCCC2)cc1 | 1.6 | 0.7 | 3.6 | · | -5.5 | 3 | 0.67
Cc1ccc(/C=N/Nc2nc(C(C)(C)C)cs2)o1 | -0.1 | -2.3 | · | -8% | -2.1 | 4 | ·
CC(C)(C)c1ccc(-c2noc(CCC(=O)N3CCOCC3)n2)cc1 | -0.5 | -3.9 | 3.5 | 14% | 9.6 | -5 | 0.72
c1ccc(OCc2ccc(CCCN3CCOCC3)cc2)cc1 | -1.3 | -3.2 | 2.1 | · | -3.4 | -10 | 0.71
COCCNC(=O)Cn1cnc2sc(C)c(S(=O)(=O)N3CCC(C)CC3)c2c1=O | 0.7 | 1.8 | 2.8 | ? | -4.2 | -2 | 0.71
Cc1cccnc1NC(=O)c1cccc(S(=O)(=O)N2CCN(c3ccccc3)CC2)c1 | 0.1 | 1.5 | -1.4 | 15% | -1.6 | -1 | 0.7
CC(C)CCOC(=O)C1C(c2ccccc2)C(C(=O)O)C1c1ccccc1 (stereo unspecified) | -0.1 | -5.2 | -1.3 | ? | 2.4 | 10 | 0.69
Cn1c(-c2ccc3c(c2)OCO3)cnc1N | 0.5 | 2.8 | 1.4 | -7% | -0.4 | 0 | 0.74
Cc1c(NC(=O)C2CC(c3cccc(Br)c3)=NO2)c(=O)n(-c2ccccc2)n1C (stereo unspecified) | 0.2 | 1.7 | -0.2 | -1% | 0.4 | -4 | 0.66
CCCCN(C(=O)c1ccc(N(C)S(=O)(=O)c2ccc(C)cc2)cc1)c1c(N)n(CCCC)c(=O)[nH]c1=O | -0.5 | -0.2 | -2.2 | -5% | · | 1 | 0.67
Cc1ccc2nc(NC(=O)COC(=O)CSc3nc(C)cc(C)n3)sc2c1 | -5.2 | 1.9 | 4.0 | -4% | -1.1 | 1 | 0.71
Cc1ccc(-c2cn(-c3ccc(SC(F)F)cc3)c3[n+]2CCC3)cc1 | 0.5 | -0.2 | 5.0 | -7% | -2.9 | 5 | 0.71
Cc1ccc(CNC(=O)c2cc(C)nn2-c2ccccc2)cc1 | -0.3 | 1.2 | 0.8 | -4% | 1.7 | -6 | 0.71
O=C(CCSc1nc(-c2ccco2)cc(C(F)(F)F)n1)Nc1ccc2c(c1)OCO2 | -1.1 | 0.7 | -2.7 | 14% | 2.5 | -8 | 0.75
COC(=O)C1CCN(C(=O)COC(=O)CC(NC(C)=O)c2ccccc2)CC1 (stereo unspecified) | 0.4 | 0.8 | 1.6 | 10% | 5.3 | 3 | 0.68
CCOc1ccccc1NC(=O)CNC(=O)c1nn(-c2ccc(OC)c(OC)c2)c(=O)c2ccccc12 | -0.4 | -3.9 | -3.2 | · | -0.5 | 10 | 0.66
Cc1cc(C)nc(N2C(=O)CC(Cc3ccc(Cl)cc3)C2=O)n1 (stereo unspecified) | 2.1 | 1.3 | 0.8 | 0% | -5.7 | -2 | 0.68
COC(=O)CN(c1ccccc1F)S(=O)(=O)c1ccc(C)cc1 | 1.5 | 0.0 | 4.7 | -2% | -1.3 | -4 | 0.64
CCOc1ccc(C(=O)SC2=NCCS2)cc1 | -0.8 | 3.6 | -0.6 | 1% | -3.9 | -1 | 0.71
CCCCn1c(N)c(N(CC(C)C)C(=O)c2cc(-c3ccncc3)nc3ccccc23)c(=O)[nH]c1=O | 2.7 | 11 | 0.9 | 4% | 2.8 | 0 | 0.7
COc1cccc(-n2c(SCC(=O)N3CCOCC3)nc3c([nH]c4ccccc43)c2=O)c1 | 0.1 | -1.6 | 4.9 | -4% | -3.0 | 2 | 0.74
C/C=C/C=C(/NC(=O)c1ccccc1)C(=O)Nc1ccccc1 | -0.2 | -1.1 | -0.9 | -2% | 1.7 | 0 | 0.71
O=C(c1cc(-c2ccco2)nc2ccccc12)N1CCN(Cc2ccccc2)CC1 | -0.5 | 2.2 | -349 | · | 6.9 | -11 | 0.67
CCOC(=O)C1CCCN(C(=O)/C=C/c2cccc([N+](=O)[O-])c2)C1 (stereo unspecified) | 0.3 | 1.1 | 5.0 | -3% | -0.4 | 4 | 0.75
CC(C)OC(=O)c1c(NC(=O)Cn2cnc([N+](=O)[O-])n2)sc2c1CCCC2 | -0.6 | 0.8 | 6.3 | 3% | -4.2 | 8 | 0.76
O=C(O)CCCCCCCCc1cn(CC2CCCCC2)nn1 | -0.6 | -1.4 | -0.7 | · | 1.5 | 3 | 0.68
CCCCc1cc(C(=O)Cc2ccccn2)c(O)cc1O | -0.2 | 2.7 | -17 | 50% | -5.4 | 2 | 0.67
CS(=O)(=O)c1nc(S(=O)(=O)c2ccc(Cl)cc2)c(NCc2ccccn2)s1 | 0.2 | -0.3 | 3.3 | 5% | 4.1 | 2 | 0.68
O=C(CNS(=O)(=O)c1ccccc1)N1CCCC1 | 0.3 | -5.0 | 0.8 | 10% | -2.9 | -2 | 0.67
Cc1ccc(C(=O)Nc2sc3c(c2C(=O)O)CCC(C)C3)o1 (stereo unspecified) | -12 | -3.2 | 2.4 | · | 2.4 | 2 | 0.68
CCOC(=O)c1cnc(-c2ccccc2)nc1-c1ccccc1 | 0.4 | -0.7 | 1.8 | -9% | -8.3 | -5 | 0.67
Cc1ccc(C)c(NS(=O)(=O)c2cc(C(=O)NCc3ccccn3)ccc2C)c1 | -0.2 | 0.1 | 0.2 | · | -4.4 | 6 | 0.64
CCNC(=O)COC(=O)c1ccc(S(=O)(=O)N2CCCCCC2)cc1 | -0.7 | 2.3 | 3.1 | -5% | 2.1 | -3 | 0.69
COc1ccc([N+](=O)[O-])cc1NS(=O)(=O)c1cccc(C(=O)NCCCN2CCCC2=O)c1 | 0.7 | 4.2 | 5.3 | -3% | -0.6 | 1 | 0.65
COC(=O)c1ccc2c(=O)n(CCO)c(=S)[nH]c2c1 | -0.1 | -1.4 | -2.9 | 11% | 4.5 | 8 | 0.65
Cc1cc(=O)oc2c(C)c(OC(=O)c3ccco3)ccc12 | 1.3 | 1.0 | -128 | · | -3.8 | 4 | 0.68
O=C(CC1(O)C(=O)N(CN2CCOCC2)c2ccccc21)c1ccccc1 (stereo unspecified) | 1.5 | -3.8 | 0.1 | 20% | -1.9 | 1 | 0.66
O=C(O)C1CCN(C(=O)CSc2nc3ccccc3c(=O)n2-c2ccc(Cl)cc2)CC1 | 1.1 | 0.0 | · | -9% | 1.8 | 2 | ·
CCc1cccc(NC(=O)Cc2ccc(OC)c(OC)c2)c1 | 0.5 | -1.3 | 2.6 | -1% | -1.5 | 8 | 0.67
O=c1cc(N2CCCCC2)c(-c2ccccc2)nn1Cc1ccc(Cl)cc1 | 0.6 | 2.7 | 4.8 | -5% | 2.2 | -9 | 0.75
CC1=NN(C(C#N)c2ccc([N+](=O)[O-])cc2)C(C)(C)C1 (stereo unspecified) | -0.3 | · | 5.3 | 18% | 0.3 | -1 | 0.67
COc1ccccc1N1CCN(C(=O)c2ccc3c(Cl)c4c(nc3c2)CCCC4)CC1 | -0.4 | -2.3 | 3.5 | ? | -0.3 | 10 | 0.66
COc1ccc(C(C(=O)NC(C)(C)C)N(CCc2ccc(OC)c(OC)c2)C(=O)CCC(=O)Nc2cc(C)on2)cc1 (stereo unspecified) | -0.4 | -0.3 | 1.0 | 1% | -8.7 | 3 | 0.61
CCCCC(=O)OCC(=O)c1cc(C)n(-c2c(C)n(C)n(-c3ccccc3)c2=O)c1C | 0.3 | 0.2 | -0.1 | 5% | -2.9 | -1 | 0.66
O=C(c1ccc2ccccc2c1)C1CCCN(C(=O)CN2C(=O)CSC2=O)C1 (stereo unspecified) | -0.4 | -1.2 | -15 | -2% | 3.4 | -2 | 0.74
Cc1ccc(-c2cc(C(=O)OCC(=O)Nc3cc(C)on3)c3ccccc3n2)c(C)c1 | 1.0 | 1.0 | 3.0 | -8% | 1.2 | -4 | 0.74
CC1=C([N+](=O)[O-])C(c2ccccc2Cl)NC(=O)N1C (stereo unspecified) | -0.2 | 0.3 | 9.9 | · | 1.7 | -1 | 0.74
COc1ccc([C@H]2CC(=O)C=C(c3cccc(Br)c3)C2)cc1 | 0.5 | 1.1 | 1.3 | · | -0.2 | -3 | ·
COc1ccc(NC(=O)CNc2ccccc2C(C)=O)cc1S(=O)(=O)N1CCOCC1 | ? | 3.0 | -5.6 | · | -3.8 | -5 | 0.69
Cc1ccnc2nc(C(=O)Nc3ccc(S(=O)(=O)N4CCCC4)cc3)nn12 | 0.1 | -1.1 | 0.2 | · | 2.8 | -5 | 0.66
Cc1cccc(C)c1NC(=O)CN(C)C(=O)Cn1c(=O)cnc2ccccc21 | 0.7 | -0.4 | 3.9 | -4% | 6.2 | -6 | 0.74
CC(C)C(=O)Nc1nnc(SCC(=O)NC2CCCC2)s1 | -0.6 | 2.1 | 1.3 | · | -0.2 | 24 | 0.66
COc1ccc(-n2c(=O)c3ccccc3n(CC(=O)Nc3cc(C)on3)c2=O)cc1OC | 0.3 | -1.5 | 3.5 | 21% | -4.3 | 9 | 0.79
COc1ccc2nc(C)cc(Sc3nc4ccccc4s3)c2c1 | 0.4 | -1.9 | -0.8 | 1% | -5.5 | -13 | 0.65

Later entries:
molecule | Bfl-1 A1 inh | HNF4A DNA FP | UCH37 inh | Vif A3G | LANA-H2A inh | Beta2AR agonist | Ecoli growth
COc1ccc(-c2nc3c(n2O)CCC/C3=N\O)cc1 | -0.7 | 1.3 | · | 19% | -1.4 | 7 | ·
Cc1ccccc1-c1nc(CS(=O)CC(=O)NC2CCCC2)c(C)o1 (stereo unspecified) | 1.3 | -0.8 | 1.2 | · | -7.7 | -3 | 0.71
Cc1ccccc1-n1nc2c(c1NC(=O)c1c(-c3ccccc3Cl)noc1C)CS(=O)(=O)C2 | 1.2 | 0.9 | 2.2 | 10% | -5.6 | -7 | 0.67
O=C(/C=C/c1cccs1)Nc1ccc(N2CCOCC2)c(S(=O)(=O)Nc2cc(Cl)ccc2Cl)c1 | 0.1 | 5.0 | -4.8 | 25% | -2.9 | 12 | 0.68
O=C(CN1C(=O)NC2(CCCC2)C1=O)NCCC1=CCCCC1 | 0.7 | -0.6 | 4.9 | -2% | -3.0 | -1 | 0.72
Cc1cc(C(=O)CSc2nnnn2-c2ccccc2)c(C)n1-c1ccc2c(c1)OCO2 | -0.7 | 5.8 | · | · | 3.2 | 3 | ·
CCCN(CCC)CCNC(=O)c1cc2c(-c3ccc(Cl)cc3)nn(C)c2s1 | 0.5 | -2.7 | -102 | · | 0.4 | 25 | 0.65
N#Cc1ccccc1S(=O)(=O)N1CCN(CC(=O)NCC2(N3CCOCC3)CCCCC2)CC1 | -0.9 | 0.3 | 4.7 | · | -8.6 | -1 | 0.68
